Screening data deposited in PubChem by National Center for Advancing Translational Sciences (NCATS).
SARS PLpro yeast – blocks SARS-CoV papain-like protease in a yeast assay. 330,000 compounds, 0.19% hits. Potency, µM (top dose mostly 32.9 µM), without a hit: at the top dose activity, positive = growth rescue. AID 485353. S. cerevisiae expressing SARS-CoV PLpro, growth rescue; control for the full effect not named in the record; note: 0% is about no effect; nearly all actives have a fitted effect of over 55% in size; growth read by luminescence after 48 h
MARV entry inh – Marburg virus entry inhibition | Marburg virus pseudotyped entry inhibition, cell reporter; control for the full effect not named in the record; about a third of the inactives were read at about 46 µM | Potency, µM (titrated, usually from 37.8 µM), without a hit: top-dose activity change, negative = inhibition, hits mostly inhibitors | 300,000 compounds, 1.8% hits; active = well fitted inhibition curve with a large enough effect; inconclusive = small, poorly fitted or top-dose-only effect, or effect the other way; inactive = flat fitted curve, though single readings scatter; tested in HEK293 cells; about a fifth of its hits are not listed in these tables; note: % is set by controls: 0 for no effect and ±100 for the full control effect; luciferase read-out
NS1 inh – inhibitors of influenza NS1 protein function; S. cerevisiae slowed by influenza A NS1, growth recovery by OD600; Potency, µM (doses to about 46.1 µM), for the others: top-dose activity, positive = more growth; 270,000 compounds, 0.4% hits; note: actives are rising curves; nearly all actives have a fitted effect of over 50% in size
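OD600 was taken as the measure of yeast growth restored by compound in an NS1-expressing S. cerevisiae strain. Cells had been washed out of glucose medium and diluted 1:100 into galactose -URA medium, pH 6.0.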
Cruzain Triton – inhibitors of Trypanosoma cruzi cruzain with detergent; Potency, µM, for the others: max response, negative = inhibition, most hits filed as inhibitors; 200,000 compounds, 0.43% hits; purified cruzain, Z-FR-AMC fluorescence, 0.01% Triton; active = well fitted curve in the direction sought with a large enough effect; inconclusive = small, poorly fitted or top-dose-only effect, or another doubt; inactive = no such curve, though single readings can be large; an effect the other way counts as inactive or inconclusive;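 note: plate controls were neutral wells for no effect and buffer without enzyme for full effect; nearly all actives have a fitted effect of over 40% in size; top concentration of the series not given in the record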
Target sequence (P25779 123-467 limits assumed): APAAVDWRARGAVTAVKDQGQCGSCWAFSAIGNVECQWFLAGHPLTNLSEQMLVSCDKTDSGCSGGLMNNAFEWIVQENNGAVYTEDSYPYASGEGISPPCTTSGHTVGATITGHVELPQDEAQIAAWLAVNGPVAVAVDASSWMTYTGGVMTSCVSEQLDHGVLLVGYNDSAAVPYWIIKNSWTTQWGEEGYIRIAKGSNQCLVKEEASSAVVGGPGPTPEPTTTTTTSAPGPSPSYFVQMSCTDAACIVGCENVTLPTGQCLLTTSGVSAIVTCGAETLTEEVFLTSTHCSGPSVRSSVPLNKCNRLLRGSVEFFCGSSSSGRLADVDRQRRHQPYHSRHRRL
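Detergent-containing arm of a paired screen for aggregation-based inhibition: 0.01% Triton X-100 present. Cruzain at 1.5 nM cleaved 2 uM Z-FR-AMC at pH 5.5 with 5 mM DTT; AMC fluorescence gain over 60 s measured activity.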
StopGo reporter – FMDV 2A StopGo reporter, luciferase signal. human cells with a luciferase reporter of 2A StopGo recoding; control for the full effect not named in the record. Potency, µM (doses to about 57.9 µM), inactives show at the top dose signal change, negative = less light. 410,000 compounds, 1.2% hits. AID 1159524; active = well fitted falling curve with a large enough effect; inconclusive = small, poorly fitted or top-dose-only effect; inactive = no such curve, though single readings can be large or run the other way; tested in HEK293T cells; note: % is set by controls: 0 for no effect and ±100 for the full control effect; nearly all actives have a fitted effect of over 45% in size; luciferase light after 4 h
Cruzain inh noDet – cruzain (T. cruzi) inhibition without detergent; 200,000 compounds, 2.3% hits; purified cruzain, Z-FR-AMC fluorescence, no detergent; Potency, µM, without a hit: max response, negative = inhibition, most hits filed as inhibitors; active = well fitted curve in the direction sought with a large enough effect; inconclusive = small, poorly fitted or top-dose-only effect, or another doubt; inactive = no such curve, though single readings can be large; an effect the other way counts as inactive or inconclusive;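 note: plate controls were enzyme without inhibitor for no effect and buffer without enzyme for full effect; nearly all actives have a fitted effect of over 40% in size; top concentration of the series not given in the record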
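Purified cruzain at 1.5 nM, pre-incubated 15 min with compound at room temperature in 100 mM sodium acetate pH 5.5, 5 mM DTT, 0.00005% Triton X-100. Reaction started with 2 uM Z-FR-AMC; AMC fluorescence increase over 60 s gives rate.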
RE007 growth inh – less growth of the S. pombe RE007 Vpr strain; S. pombe RE007 Vpr strain, BacTiter-Glo ATP luminescence, 24 h; control for the full effect not named in the record; Potency, µM (top dose mostly 92.2 µM), for inactives: at the highest dose activity change, negative = less growth; 360,000 compounds, 0.21% hits; active = well fitted falling curve with a large enough effect; inconclusive = small, poorly fitted or top-dose-only effect; inactive = no such curve, though single readings can be large or run the other way;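 note: % is set by controls: 0 for no effect and ±100 for the full control effect; nearly all actives have a fitted effect of over 50% in size; the assay follows cell death caused by Vpr and the record does not say whether a fall means rescue or toxicity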
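Fission yeast strain RE007, carrying one chromosomally integrated HIV-1 vpr copy, was seeded at OD 0.01 in PMG+AL medium with 23 nL pinned compound. After 24 h at 30 °C and 99% humidity, viability was read by BacTiter-Glo luminescence.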
Lassa entry inh – Lassa virus entry inhibition. 300,000 compounds, 1.2% hits. Potency, µM (top dose mostly 37.9 µM), without a hit: at the top dose activity change, negative = inhibition, usual class: inhibitors. AID 540256. Lassa virus pseudotype entry inhibition, cell reporter; control for the full effect not named in the record; active means well fitted inhibition curve with a large enough effect; inconclusive means small, poorly fitted or top-dose-only effect, or effect the other way; inactive means flat fitted curve, though single readings scatter; tested in HEK293 cells; note: % is set by controls: 0 for no effect and ±100 for the full control effect; nearly all actives have a fitted effect of over 50% in size; luciferase read-out
Starred values were filed as active, the others as inactive; u = inconclusive; x = no result given; & = joins results of further samples; [ ] = remark or other dose. Unless noted, calls come from the whole dose curve; as a rule, active means well fitted rising curve with a large enough effect; inconclusive means small, poorly fitted or top-dose-only effect; inactive means no such curve, though single readings can be large or run the other way. Potency is the fitted concentration of half-maximal effect.

SMILES	SARS PLpro yeast	MARV entry inh	NS1 inh	Cruzain Triton	StopGo reporter	Cruzain inh noDet	RE007 growth inh	Lassa entry inh
COC(=O)NC(NC(=S)Nc1cccc(C)c1)C(Cl)(Cl)Cl (stereo unspecified)	-1%	-15%[46.1 µM]	2%	x	-7%	x	4%	-14%
Cc1c(NC(=O)C(F)(F)F)ccc2nc3c(=O)n(C)c(=O)n(C)c3nc12	x	4%[46.1 µM]	x	-4.7%	0%	12%	x	u
CCOc1ccc2nc(C)cc(Nc3ccccc3OCC)c2c1	x	x	x	-11%	-4%	10%	x	u
CCC(=O)Nc1ccc(C(=O)NNC(=O)c2ccccc2)cc1	0%	x	-2%	x	7%	x	13%	x
Cc1cc(=O)[nH]c(N/N=C/c2ccccc2C(F)(F)F)n1	-1%	21%[46.1 µM]	x	x	8%	x	8%	1%
O=C(NC1CCCC1)C1c2ccccc2C(=O)N1CCCN1CCOCC1 (stereo unspecified)	14%	-9%	-18%	1.3%	-5%	-2%	4%	-2%
Cc1cc(=O)n2nc(-c3ccccc3)sc2n1	-7%	18%	-10%	3.2%	33%[activator]	-2%	u	23%
Cc1ccc(C(=O)OCCOc2cccc(Cl)c2)cc1S(=O)(=O)N1CCOCC1	-1%	u	x	x	u	x	3%	-26%
O=C(Nc1ccc(F)cc1)c1nn(-c2ccccc2)c(=O)cc1Cl	-1%	7.1µM*	-6%	x	22µM*	x	10%	u
Cc1ccc(N(CC(=O)NC(C)C)C(=O)CCC(=O)Nc2nccs2)cc1C	0%	11%[46.1 µM]	2%	x	4%	x	-3%	2%[46.1 µM]
COc1cccc(C(=O)c2sc(NC(C)C)nc2N)c1	-5%	u	7%	-9.4%	9%	-1%	-3%	9%
Cc1nc2c(ccc3c2ccc2nc(C)sc23)s1	-2%	u	-3%	4.7%	26%	-5%	1%	9%
CCn1c(=O)c2c(n3cnnc13)-c1ccccc1CC21CCCCC1	7%	10%	-73%	-1.4%	u	2%	3%	12%
O=C(OCCN=C1NS(=O)(=O)c2ccccc21)c1cccs1	2%	-3%[46.1 µM]	11%	x	36%[activator]	x	-23%	0%[46.1 µM]
COc1ccccc1OCC(=O)Nc1ccncc1	0%	x	-4%	x	11%	x	-20%	x
COC(=O)CN1C(=O)N/C(=C/c2ccc(C)o2)C1=O	1%	29%[46.1 µM]	x	x	-2%	x	-6%	2%
O=C(CCNS(=O)(=O)c1ccccc1)NCCCc1ccccc1	-2%	1%	x	x	-10%	x	u	0%
COc1ccc(NC2CCCN(C(=O)c3csc(C(C)C)n3)C2)cc1 (stereo unspecified)	8%	x	u	x	-20%	x	-9%	x
COc1ccccc1NCC(=O)N/N=C(\C)c1ccc(Br)s1	-11%	u	18%	-3.2%	-14%	-23%	-9%	-7%
Cc1cc(C)cc(NC(=O)C[n+]2ccccc2)c1	0%	-4%[46.1 µM]	-2%	x	-21%	x	-9%	12%[46.1 µM]
Cc1nn(C)cc1/C=N/NC(=O)Cn1cncn1	0%	15%[46.1 µM]	-1%	x	10%	x	-7%	-8%
CCOc1ccccc1C(=O)Nc1ccc2nc(N3CCN(c4ncccn4)CC3)cc(C)c2c1	x	13µM*	-55%	x	8.9µM*	x	28%	u
CCn1c(SCC(=O)c2ccc(Cl)cc2)nnc1C(C)C	-25%	21%	-9%	-2.8%	26%	5%	-7%	3%
Cc1ccccc1CN(c1ccc(C(=O)NCc2ccccn2)cc1)S(C)(=O)=O	1%	5%[46.1 µM]	-3%	x	0%	x	5%	4%[46.1 µM]
Cc1ccc(N(C(=O)Cn2nnc(-c3cccs3)n2)C(C(=O)NC2CCCC2)c2ccncc2)cc1 (stereo unspecified)	2%	u	7%	-1.4%	-25%	-1%	13%	6%
NC(=O)C1CCN(S(=O)(=O)Cc2ccccc2Cl)CC1	0%	30%	6%	x	-21%	x	-7%	2%
O=C(CSc1nc2c(oc3ccccc32)c(=O)n1Cc1ccco1)Nc1ccccc1Cl	x	-7%[46.1 µM]	x	0.6%	0%	1%	x	x
COc1ccc(NC(=O)CC2C(=O)NCCN2C(=O)Nc2ccc(C(F)(F)F)cc2)cc1 (stereo unspecified)	5%	u	6%	x	-5%	x	12%	-23%[46.1 µM]
CN(C)CCCn1c(SCc2c(Cl)cccc2Cl)nnc1-c1ccncc1	2%	x	-9%	x	-8%	x	1%	x
CCOc1cccc(/C=N/N2C(=O)CSC2=S)c1O	1%	u	x	x	11%	x	-17%	u
O=C(Nc1cc(C(F)(F)F)ccc1N1CCOCC1)c1ccc2ccccc2n1	-5%	14%	2%	-6.3%	31%[activator]	u	-3%	u
CCOCCCNCC(=O)NC1(C)C2CCC(C2)C1(C)C (stereo unspecified)	8%	-16%	-1%	2.4%	-15%	-1%	-2%	10%
CC(C)CCn1c(SCC(=O)NC2CC2)nc2cc(Cl)ccc2c1=O	0%	21%	x	x	-8%	x	3%	8%
COc1cccc(/C=N/NC(=O)C(C)n2nc(C)c([N+](=O)[O-])c2C)c1O (stereo unspecified)	11µM*	u	10%	-5.7%	33%[activator]	-12%	-4%	u
CCOc1ccccc1NC(=O)c1cc(S(=O)(=O)NC2CCCC2)ccc1F	x	x	x	-0.1%	45%[activator]	3%	x	16%[46.1 µM]
Cc1cc(C)cc(-n2c(C)cc(/C=N/NC(=O)c3cccc([N+](=O)[O-])c3C)c2C)c1	7%	u	16%	-3.8%	u	u	-8%	u
Cc1cccc(C)c1NC(=O)c1c(C)oc2c1C1=NCCN1C=N2	x	x	x	-0.8%	-4%	-2%	x	4%[46.1 µM]
O=C(CSCc1ccc(Br)cc1)Nc1ccc(S(=O)(=O)N2CCOCC2)cc1	2%	16%	4%	-0.5%	u	1%	9%	-18%[14.3 µM]
Cc1ccc(/C=C/C(=O)Nc2ccc([N+](=O)[O-])cc2)o1	2%	18%	-10%	-6.5%	-2%	-30%	-3%	-8%
Cc1ccccc1NC(=O)c1c(NC(=O)C(C)Oc2cccc(Cl)c2)sc2c1CCCC2 (stereo unspecified)	x	x	x	-1.6%	-5%	u	x	-3%[46.1 µM]
COc1ccc(C2=C(C)C(N3CCN(c4ccc(OC)cc4)CC3)=NS2(=O)=O)cc1	x	-6%[46.1 µM]	x	-3.4%	-9%	5%	x	9%[46.1 µM]
CCOc1ccccc1NC(=O)c1nnn(CC(=O)Nc2cc(C)cc(C)c2)c1N	3%	-13%[46.1 µM]	4%	x	-12%	x	-5%	-5%[46.1 µM]
S=C(NCc1ccco1)Nc1ccc(Br)cn1	-6%	x	5%	x	29%	x	17%	x
CCCNC(=S)N1CCC(C(=O)c2ccc(Cl)cc2)CC1	-2%	x	-15%	x	u	x	-8%	x
Cc1nc2ccc3nc(NC(=O)C4COc5ccccc5O4)sc3c2s1 (stereo unspecified)	-6%	x	-28%	-1.8%	0%	u	3%&-8%	x
Cc1ccc(NC(=O)C2CCCN(S(=O)(=O)c3cccnc3)C2)c(C)c1 (stereo unspecified)	8%	-13%[46.1 µM]	-7%	x	-15%	x	1%	-23%[46.1 µM]
O=C(NCCCN1CCOCC1)c1cc2c(s1)CCC2	0%	6%[46.1 µM]	-6%	7.1%	32%[activator]	9%	-2%	20%
CCCCCn1cc2c(c1-c1ccc(Br)cc1)c(=O)n(C)c(=O)n2C	x	-17%[46.1 µM]	x	-2.5%	-9%	-7%	x	-1%[46.1 µM]
O=C(Nc1ccccc1)Nc1cccc(NC(=O)Nc2ccccc2)c1F	-3%	u	4%	x	21%	x	2%	0%
CCOC(=O)N1CCN(C(=O)c2cnn(-c3cccc(C)c3)c2-n2cccc2)CC1	x	x	x	2.7%	-26%	u	x	0%[46.1 µM]
Next part:
SMILES	SARS PLpro yeast	MARV entry inh	NS1 inh	Cruzain Triton	StopGo reporter	Cruzain inh noDet	RE007 growth inh	Lassa entry inh
COc1ccc2c(c1)O[C@@H](c1ccc3c(c1)OCO3)[C@H](O)C2=O	x	u	x	1.0%	x	-13%	x	u
CCCC(C(=O)NCCC(C)C)N(Cc1ccccc1Cl)C(=O)c1snc(C(N)=O)c1N (stereo unspecified)	7%	x	9%	x	-1%	x	-3%	x
COC(=O)c1sc(-c2ccc(C(C)(C)C)cc2)cc1NC(=O)COCC(=O)O	0%	u	14%	x	3%	x	-1%	-9%
O=C(CCn1c(=O)sc2ccccc21)NCc1cccs1	9%	0%	-3%	0.4%	x	22%	14%	16%
O=C(Nc1ccc(F)cc1F)c1ccccc1-c1ccccc1	0%	-3%	-11%	-5.4%	-12%	8%	-8%	u
O=[N+]([O-])c1cc(S(=O)(=O)c2ccc(O)c([N+](=O)[O-])c2)ccc1O	4%	u	13%	-4.6%	-2%	5%	0%	2%
CCN(CC(=O)NCc1ccc(Cl)cc1)C(=O)c1cc(S(=O)(=O)NCc2ccccc2)ccc1C	1%	u	9%	x	-3%	x	-8%	-19%
COCCNC(=O)c1sc2nc3n(c(=O)c2c1C)CCC3	x	x	x	-1.3%	-7%	3%	x	9%[46.1 µM]
O=S(=O)(c1ccccc1)c1cnc(-c2cccnc2)nc1-c1ccc(Cl)cc1Cl	-16%	-2%	16%	0.3%	-18%	2%	25%	-14%
O=C(Cc1coc2cc3c(cc12)CCC3)OCc1cc(=O)n2c(n1)sc1ccccc12	-4%	-14%	13%	-7.3%	26%	u	-3%	-14%
COc1ccc(-c2cc(-n3c(C(F)(F)F)nc4ccccc43)n(CCC#N)n2)cc1	-27%	u	-1%	2.9%	-16%	u	8%	-26%
CC(C)CCN1CC(=O)N2[C@@H](Cc3c([nH]c4ccccc34)C2(C)C)C1=O	-2%	x	0%	x	-28%	x	10%	x
CCc1c(C)nc(SC)n(CC#N)c1=O	4%	1%[46.1 µM]	2%	-3.7%	-23%	-8%	-6%	5%
CC(C)(C)NC(=O)C(c1ccc(O)cc1)N(C(=O)CCC(=O)Nc1nccs1)c1ccccc1F (stereo unspecified)	-1%	u	2%	x	-11%	x	1%	10%
